Beta cell apopt – inhibitors of cytokine-induced beta cell apoptosis, primary screen, luminescence. protection from apoptosis, % (concentration not given with the values). 300,000 tested, 0.8% active. INS-1E cytokine-induced death, ATP luminescence, 48 h; percent of positive-control rescue, neutral wells zero;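 active = all replicates at 75% or more, or half of them and the mean; inconclusive = half reach 75% but not the mean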;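 note: 0% = cytokine-treated negative control wells and 100% = positive control rescue; higher means more ATP so stronger rescue from cytokine killing; wells of about 40 µL received 100 nL stock; the first replicate is given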
Vif A3G – inhibitors of Vif binding to APOBEC3G peptide, primary screen, biochemical, TR-FRET, GST-Vif 1-94, biotin-A3G peptide, dose response retest (AID 1117319) | TR-FRET GST-Vif / biotin-A3G peptide binding; higher % means a stronger effect; test concentration not given here; strong numbers were not always called active | inhibition, %, or IC50 in µM where a hit was titrated | 260,000 tested, 0.57% active;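 active = above the screen mean plus three standard deviations and confirmed in dose response; inconclusive = results disagree or hit not tested in dose response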;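 note: Vif residues 1-94 fused to GST binding biotinylated APOBEC3G peptide 110-148; 0% = full assay without inhibitor and 100% = GST in place of GST-Vif; retest series ran down from 100 µM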
Bfl-1 A1 inh – caspase 3/7 activation in MEF A1-2A-BIM cells, primary screen, A1 inhibitor project, cell-based, luminescence, HTS; Caspase-Glo 3/7 luminescence, 3 h; percent of clofoctol response, vehicle zero; AID 2462, 2010; 330,000 tested, 0.066% active; caspase activation, % (concentration not given with the values);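 active = over half of replicate activation scores above 10%, or exactly half above 10 with the replicate mean above 10; inconclusive = replicate mean below 10 yet half the replicates above 10; inactive = over half of replicates below 10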;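 note: wells of about 30 µL received 50 nL stock; many hits fall short of the cut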
RanGTP-Imp inh – inhibitors of RanGTP-importin-beta interaction, primary screen, biochemical, FRET, CFP-Ran, YFP-importin-beta, homogeneous. 300,000 tested, 1.1% active. cell-free CFP-Ran/YFP-importin-beta FRET ratio. inhibition, % (test concentration not listed);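 active = most replicates above 15%; inconclusive = exactly half above 15%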;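 note: 0% = DMSO wells and 100% = Ran loaded with GDP instead of GTP; wells of about 40 µL received 100 nL stock; the first replicate is given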
Calb FLC – C. albicans growth inhibition with fluconazole, primary screen, CaCi-2 strain, Alamar Blue fluorescence; C. albicans CaCi-2 (fluconazole-resistant clinical isolate) + fluconazole, 48 h; growth inhibition, % (concentration not given with the values); 300,000 tested, 0.57% active; AID 1979, 2009;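 active = most replicates above 75%; inconclusive = exactly half above 75%; inactive = most below 75%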;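 note: all wells also contain fluconazole at 8 µg/ml as a sub-toxic cotreatment; 0% = median of DMSO wells and 100% = median of geldanamycin control wells; wells of about 8 µL received 7.5 nL stock; the first replicate is given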
rRNA inh HTS – reduced GFP signal of wild-type E. coli, primary screen, bacterial rRNA inhibitor project, GFP/RFP fluorescence, OD600, single point. AID 720706, 2013. GFP signal change (wild-type ribosome), % (no concentration beside the values). E. coli WT GFP vs humanized-ribosome RFP mutants, 24 h; active compounds read low; DMSO median 0, no signal -100. 350,000 tested, 1.6% active;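 active = significant combined selectivity score with lowered wild-type GFP, culture density cut under 30%, mutant RFP and density less affected; inactive = any of these conditions unmet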; note: one replicate is shown; some compounds called inactive have numbers as strong as hits
T cruzi inh – inhibitors of intracellular T. cruzi growth, primary screen, luminescence, NIH3T3 host cells; inhibition, % (test concentration not listed); 300,000 tested, 1.4% active; T. cruzi beta-gal in NIH3T3, 90 h;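 active = mean inhibition across valid replicates above about 55%, limit read from the data; inconclusive = mean below that limit but half or more replicates reach it; inactive = mean below it, under half of replicates reach it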;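 note: signal also drops with host cell toxicity which is not excluded here; 0% = plate median of DMSO wells and 100% = zero luminescence signal; higher percent means less beta-gal luminescence so fewer parasites; stock transfer was 50 nL into about 50 µL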
MLL AF4-AF9 inh – inhibitors of AF4 peptide binding to AF9, primary screen, biochemical, AlphaScreen, biotin-AF4 peptide, FLAG-AF9, single point | inhibition, % at 10 µM | 350,000 tested, 0.47% active;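 active = every replicate reaching a set inhibition limit, whatever the replicate mean, cut at about 25% in these data; inconclusive = mean inhibition reaches that limit but some replicates miss it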;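 note: 0% = plate neutral control median and 100% = total signal loss; the record names both 10 and 1 µM as test concentration; the first replicate is given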
Target sequence (P42568 whole entry, looked up): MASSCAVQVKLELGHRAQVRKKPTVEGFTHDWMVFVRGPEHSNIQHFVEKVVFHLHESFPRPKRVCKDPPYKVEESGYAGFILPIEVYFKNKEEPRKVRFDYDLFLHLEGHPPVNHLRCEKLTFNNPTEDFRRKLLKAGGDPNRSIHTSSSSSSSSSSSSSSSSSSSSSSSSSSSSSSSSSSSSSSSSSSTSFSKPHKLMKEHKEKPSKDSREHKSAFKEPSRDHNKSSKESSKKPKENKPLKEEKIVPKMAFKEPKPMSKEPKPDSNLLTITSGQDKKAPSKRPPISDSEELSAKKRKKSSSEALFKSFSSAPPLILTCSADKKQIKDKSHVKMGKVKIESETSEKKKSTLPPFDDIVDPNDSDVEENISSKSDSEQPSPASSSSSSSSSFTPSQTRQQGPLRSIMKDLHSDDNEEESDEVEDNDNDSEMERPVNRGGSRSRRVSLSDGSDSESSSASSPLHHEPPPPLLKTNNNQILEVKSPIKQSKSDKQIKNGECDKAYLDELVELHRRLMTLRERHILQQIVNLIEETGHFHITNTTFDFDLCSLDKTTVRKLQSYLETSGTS
rRNA inh HTS OD600 – also measured in rRNA inh HTS; calls as there; OD600 change, %; measured here: OD600 growth;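 optical density of the mix in the first replicate; 0 = DMSO median and -100 = no signal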
rRNA inh HTS RFP – recorded beside rRNA inh HTS, whose call it bears; RFP signal change, %; measured here: RFP humanized mutant strains;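 first replicate; 0 = DMSO median and -100 = no signal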
* marks the source's active call; other numbers are inactive results; ? = inconclusive; . = not tested or not shown. Only part of the results is shown. The share of hits here may be higher or lower than overall.

canonical_smiles | rRNA inh HTS OD600 | rRNA inh HTS | rRNA inh HTS RFP | Vif A3G | MLL AF4-AF9 inh | Bfl-1 A1 inh | Calb FLC | T cruzi inh | RanGTP-Imp inh | Beta cell apopt
CCCCCCc1ccc(N2C[C@H](CCCCC)[C@@H](CC(=O)NCc3ccccc3)C2=O)cc1 | 9 | 5 | 3.0 | . | -0.4 | 1.4 | -1 | 0 | 3.6 | 5
Cc1ccc2c(Cl)c(C(=O)NCC(c3ccco3)N3CCCC3)sc2c1 (stereo not given) | -2 | 0 | 2.1 | . | -1.6 | -0.5 | -3 | -10 | 4.4 | 7
CC(=O)NCCC(=O)Nc1sc2c(c1-c1nc3ccccc3[nH]1)CCCC2 | . | . | . | 6% | . | 1.2 | -3 | -2 | 1.7 | 10
O=C(CC(=O)c1ccccc1)Nc1ccccc1 | 8 | 3 | 4.9 | . | 2.4 | -3.0 | 2 | 2 | -0.8 | -4
Cn1cccc1C(=O)NC(=O)COC(=O)C12CC3CC(CC(O)(C3)C1)C2 | . | . | . | 10% | . | -5.0 | 60 | 4 | -3.8 | -3
O=C(NC(=S)NCc1ccccc1)c1cccnc1 | 3 | 6 | 1.0 | -3% | -1.5 | -0.5 | 0 | -11 | 4.2 | 0
Cc1coc2cc3oc(=O)ccc3cc12 | 10 | 12 | -0.3 | 3% | -3.6 | -0.6 | 2 | -2 | 4.6 | 2
CCC1CCCCN1C(=S)NC(=O)c1ccc([N+](=O)[O-])cc1 (stereo not given) | . | . | . | . | . | 1.1 | -6 | -16 | -0.6 | -1
CCN(CC(=O)NCc1cccs1)C(=O)c1ccccc1F | 15 | 21 | 1.5 | . | 0.9 | 1.1 | -12 | 12 | 2.2 | -5
O=C(OC(C(=O)c1c[nH]c2ccccc12)c1ccccc1)c1cnccn1 (stereo not given) | -14 | -8 | -3.9 | 2% | 2.1 | 0.7 | -7 | -11 | -2.3 | 0
COc1ccc2[nH]cc(C(=O)CN3CCCC(C)C3)c2c1 (stereo not given) | . | . | . | -1% | . | -0.2 | -7 | -8 | 2.4 | -8
CC(C)[C@H](NS(=O)(=O)c1ccccc1)C(=O)OCC(=O)NC(=O)c1cccn1C | . | . | . | ? | . | 1.8 | -2 | 1 | 0.3 | -5
O=C(Nc1c(-c2ccccc2)nc2ccccn12)c1ccccc1 | -11 | -6 | -1.0 | . | -8.2 | 0.1 | 4 | -3 | 7.6 | -3
CC(=O)Nc1sc(C)c(C)c1C(=O)OCC(=O)N(CC(C)C)c1c(N)n(Cc2ccccc2)c(=O)[nH]c1=O | 9 | 1 | -0.3 | -4% | -19 | -0.2 | . | 35 | 4.2 | -5
CCOc1ccc(CN2CCN(Cc3cc4ccccc4o3)CC2CCO)cc1 (stereo not given) | -11 | -5 | 5.1 | 9% | 3.1 | 0.6 | -10 | 53 | 3.7 | 3

Following part:
canonical_smiles | rRNA inh HTS OD600 | rRNA inh HTS | rRNA inh HTS RFP | Vif A3G | MLL AF4-AF9 inh | Bfl-1 A1 inh | Calb FLC | T cruzi inh | RanGTP-Imp inh | Beta cell apopt
CN(C(=O)CSc1nnc(Nc2ccccc2)s1)C1CCS(=O)(=O)C1 (stereo not given) | . | . | . | 3% | . | 0.0 | 12 | -7 | -4.3 | 2
COc1ccc(CC(=O)Nc2ccc(/C(C)=N/NC(=O)c3cccc([N+](=O)[O-])c3)cc2)cc1 | . | . | . | 7% | . | -0.8 | -1 | -13 | -3.1 | -3
Cc1cccc(C(=O)Nc2nnc(S(=O)(=O)N3CCC(C)CC3)s2)c1 | -30 | -5 | -3.6 | . | -1.4 | -0.3 | 1 | 1 | 1.0 | -3
CC1CCCN(Cc2nc3c(c(=O)n(C)c(=O)n3C)n2CCc2ccccc2)C1 (stereo not given) | . | . | . | 4% | . | 0.3 | 0 | . | -0.2 | 2
COC(=O)c1ccccc1NC(=O)CNc1cc(OC)c(OC)cc1C | -1 | -1 | 4.9 | ? | 23 | -0.1 | 27 | -10 | 0.0 | 26
COc1cccc(-n2nc(-c3ccnn3-c3cccc(Cl)c3)c(=O)n(C)c2=O)c1 | 9 | 0 | -2.5 | 4% | -5.7 | 1.2 | 7 | 13 | -3.9 | -5
COc1ccc(NC(=O)C2CCCCN2S(=O)(=O)c2ccc(F)cc2)c(OC)c1 (stereo not given) | . | . | . | 12% | . | -0.2 | ? | 5 | 2.9 | .
CSCCC(NS(=O)(=O)c1cccs1)C(=O)NCc1ccc(C)cc1 (stereo not given) | -12 | -6 | -3.1 | . | 1.5 | 0.2 | -1 | -12 | -0.5 | 4
CC(OC(=O)Cc1n[nH]c(=O)c2ccccc12)C(=O)Nc1cccc([N+](=O)[O-])c1 (stereo not given) | -36 | -22 | -3.0 | 3% | -1.1 | 0.6 | -15 | -7 | 0.5 | -10
COc1cc(CC(=O)OCC(=O)Nc2ncc(Cl)cc2Cl)cc(OC)c1OC | . | . | . | 31% | . | -0.1 | -4 | 7 | 2.9 | -4
CC(=O)Nc1ccc(NC=C(C#N)C#N)cc1 | 8 | 19 | 3.7 | . | -1.3 | 0.5 | 10 | -10 | -0.4 | -2
CC(=O)/C(=N\Nc1ccccc1Cl)Sc1nnc(-c2ccccc2)n1-c1ccccc1 | . | . | . | . | . | 0.4 | -4 | 5 | 0.4 | -2
O=C(NCc1ccco1)c1ccc(NC(=O)C2COc3ccccc3O2)cc1 (stereo not given) | . | . | . | 6% | . | 0.2 | 38 | -8 | -2.1 | -11
COC(=O)c1sc(N2CCN(Cc3ccccc3)CC2)nc1N | -1 | 1 | -1.0 | 1% | -6.9 | 0.1 | 2 | 4 | 0.9 | -4
Cc1cc(=O)[nH]c(Nc2cccc(Cl)c2C)n1 | 15 | 14 | -0.1 | -12% | 0.2 | 0.3 | 3 | -12 | -1.0 | -5

Next results follow.
canonical_smiles | rRNA inh HTS OD600 | rRNA inh HTS | rRNA inh HTS RFP | Vif A3G | MLL AF4-AF9 inh | Bfl-1 A1 inh | Calb FLC | T cruzi inh | RanGTP-Imp inh | Beta cell apopt
O=C(Cn1c(=O)c2c3c(sc2n(Cc2ccccc2)c1=O)CCCC3)NCCO | 8 | 15 | 5.3 | -6% | -0.5 | 0.1 | 6 | 9 | -0.2 | 3
CC(=O)c1cccc(NC(=O)C2C3C=CC(C4CC34)C2C(=O)O)c1 (stereo not given) | . | . | . | 0% | . | 0.6 | -1 | 12 | 3.4 | -7
CN(C)CCNC(=O)/C(=C/c1ccc(-c2cccc([N+](=O)[O-])c2)o1)NC(=O)c1ccccc1 | . | . | . | 4% | . | 0.3 | -2 | 8 | 0.6 | 1
CCCc1cc(NCCCN(C)C)n2c(nc3ccccc32)c1C#N | 6 | 4 | -0.7 | -13% | -7.3 | -0.6 | -1 | 52 | ? | 0
CCOc1cc(C(=O)N[C@@H](C)C(=O)N2CCC3(CC2)NCCc2[nH]cnc23)cc(OCC)c1OCC | 0 | 5 | -5.0 | -8% | 4.4 | 0.1 | 1 | -16 | 5.2 | 0
Cc1ccccc1-n1c(SCC(=O)Nc2ccccc2Cl)nc2n[nH]c(C)c2c1=N | -25 | -12 | 0.2 | . | 1.3 | 0.5 | 22 | 7 | 4.0 | 1
C[C@@H](NC(=O)c1nc[nH]c1C(=O)NCc1ccc(CNC(=O)OC(C)(C)C)cc1)c1ccccc1 | -13 | -2 | 9.2 | . | -1.3 | -0.4 | . | . | . | 9
C=CCNC(=O)/C(=C\c1ccc(OC)cc1)NC(=O)c1ccc([N+](=O)[O-])cc1 | 12 | 11 | 2.1 | . | 0.7 | 0.4 | 1 | 26 | 2.6 | 0
COc1ccc(C2/C=C\CN(S(=O)(=O)c3ccc(C)cc3)[C@H](Cc3ccccc3)C(=O)N2Cc2ccc(F)cc2)cc1 (stereo not given in full) | . | . | . | . | . | -0.6 | 3 | 37 | -5.8 | 2
Cc1ccccc1CNC(=O)C1CCCN(c2nnc(C)c3c(C)n(-c4ccccc4)nc23)C1 (stereo not given) | 4 | 41 | 23 | . | 2.3 | -1.9 | -17 | 14 | 4.7 | 11
CCCCCCOc1ccc(/C=N/NC(=O)C2CC2)cc1 | 7 | 5 | 1.5 | . | -1.1 | -1.9 | -4 | . | . | 2
Cc1noc(NS(=O)(=O)c2ccc(NC(=O)CSc3nc4c(cc3C#N)CCCCC4)cc2)c1C | . | . | . | 3% | . | 0.6 | -2 | -5 | -0.4 | 1
COc1ccccc1N1CCN(C(=O)Oc2ccccc2)CC1 | . | . | . | -1% | . | 0.3 | ? | -6 | -1.6 | -3
c1ccc(CCn2nnnc2CN2CCN(C3CCCC3)CC2)cc1 | . | . | . | -1% | . | -0.3 | -1 | -18 | 2.1 | 0
CC(c1ccon1)N(C)Cc1c(C(=O)N(C)Cc2ccccc2)nc2ccccn12 (stereo not given) | -5 | 1 | -2.9 | . | -6.9 | -0.4 | -7 | 10 | . | -2

Reprinted from the part before: three entries; new compounds follow.
canonical_smiles | rRNA inh HTS OD600 | rRNA inh HTS | rRNA inh HTS RFP | Vif A3G | MLL AF4-AF9 inh | Bfl-1 A1 inh | Calb FLC | T cruzi inh | RanGTP-Imp inh | Beta cell apopt
COc1ccccc1N1CCN(C(=O)Oc2ccccc2)CC1 | . | . | . | -1% | . | 0.3 | ? | -6 | -1.6 | -3
c1ccc(CCn2nnnc2CN2CCN(C3CCCC3)CC2)cc1 | . | . | . | -1% | . | -0.3 | -1 | -18 | 2.1 | 0
CC(c1ccon1)N(C)Cc1c(C(=O)N(C)Cc2ccccc2)nc2ccccn12 (stereo not given) | -5 | 1 | -2.9 | . | -6.9 | -0.4 | -7 | 10 | . | -2
COc1ccc(-c2oc3ncn4nc(Cc5ccccc5)nc4c3c2-c2ccc(OC)cc2)cc1 | . | . | . | -5% | . | -1.0 | ? | 2 | 2.2 | 1
CCOc1ccc(OCC)c(NC(=O)C2CCN(c3nn4c(=O)cc(C)nc4s3)CC2)c1 | . | . | . | 2% | . | 0.1 | 0 | 35 | 0.9 | -4
Cc1cc(C(=O)NN)c(Cl)cc1Cl | 6 | 8 | 5.0 | 11% | -2.0 | 0.2 | 6 | 3 | -0.6 | 0
Cc1sc(-c2c(C#N)c(N)nc3c2CCCCCC3)cc1[N+](=O)[O-] | -5 | 1 | 0.7 | . | 3.3 | 0.1 | 7 | 14 | -4.8 | 4
O=C(CN1CCCCC1)Nc1nc(-c2ccccc2)cs1 | -8 | -1 | 0.1 | -7% | 1.7 | 0.8 | -2 | -6 | ? | .
CCOC(=O)Cc1csc(/C(=N/O)C(N)=O)n1 | . | . | . | 2% | . | 0.2 | ? | 2 | -4.6 | .

Screening data: PubChem BioAssay, several laboratories
